# Source: PubChem
# D2 ag = human D2 receptor agonism in beta-arrestin assay; P14416; 0.084% of 360,000 active; activation, % (concentration not given with the values); DiscoveRx PathHunter D2 beta-arrestin, luminescence, 90 min; 100% = 57 uM dopamine signal; in the data active = activation above about 40%; inconclusive = about 15% to 40%; inactive = below about 15%; also: compound concentration not given in the record; the text of the record calls up to 30% inactive
# Target sequence (P14416 whole entry, looked up): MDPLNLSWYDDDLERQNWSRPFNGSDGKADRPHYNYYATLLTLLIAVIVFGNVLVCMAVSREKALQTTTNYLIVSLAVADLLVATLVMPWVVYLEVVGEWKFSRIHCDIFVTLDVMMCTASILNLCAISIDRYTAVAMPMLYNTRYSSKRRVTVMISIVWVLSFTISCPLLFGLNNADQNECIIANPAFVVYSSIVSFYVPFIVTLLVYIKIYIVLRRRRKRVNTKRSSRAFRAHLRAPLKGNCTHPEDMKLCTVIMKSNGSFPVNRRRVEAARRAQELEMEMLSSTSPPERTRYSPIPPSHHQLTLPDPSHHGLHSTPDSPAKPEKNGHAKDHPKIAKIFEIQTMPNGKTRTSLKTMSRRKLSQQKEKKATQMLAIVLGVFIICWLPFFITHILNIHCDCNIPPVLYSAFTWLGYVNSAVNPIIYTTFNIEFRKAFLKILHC
#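 Agonist mode: compounds alone added to overnight-plated D2 PathHunter cells for 90 min at 37 C, with 57 uM final dopamine (EC100) defining full response. Beta-arrestin recruitment detected by chemiluminescent reagent, read after 1 h at ambient temperature.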
# D2 PAM = human D2 receptor positive allosteric modulation; P14416; DiscoveRx D2 beta-arrestin cells, luminescence, 90 min; 100% = 57 uM dopamine signal; potentiation, % (no concentration beside the values); 0.23% of 360,000 active; AID 624464; active = potentiation of 50% or more; inconclusive = 30% to 50%; inactive = 30% or less;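 also: compound concentration not given in the record; tested on top of an EC20 dose of dopamine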
#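 D2 cells co-treated with compound plus 50 nM dopamine (EC20) for 90 min at 37 deg C to detect potentiation. Beta-arrestin recruitment was read as enzyme-fragment luminescence after 1 h at ambient temperature. Full response was set by 57 uM dopamine.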
# Six1-Eya2 inh = blocks human Six1 binding to Eya2. AlphaScreen GST-Six1/His-Eya2 binding, biochemical; active compounds read low; control for the full effect not named in the record. activity change, % (test concentration not listed). 0.56% of 360,000 active. AID 651725; in the data active = activity change below about -65%; inconclusive = about -30% to -65%; inactive = above about -30%; also: % is scaled to controls: 0 for no effect and ±100 for the full control effect
#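 AlphaScreen luminescence read after one hour at 37 °C in darkness. Pin-transferred compounds met GST-Six1 and His-Eya2 protein (5X stock 250 nM/500 nM) plus glutathione donor and Ni-chelate acceptor beads (5X, 50 ug/mL).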
# gsp antag = gsp mutant antagonism | gsp-mutant cells, cAMP HTRF, 30 min; control for the full effect not named in the record | Potency, µM (highest dose often 76.9 µM), inactives show top-dose activity change, negative = inhibition, hits mostly inhibitors | 0.4% of 340,000 active | AID 624288; active = falling curve of any shape with a large fitted effect; inconclusive = falling curve, mostly with a smaller effect; inactive = flat or rising curve; cell line not stated here;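 also: intracellular cAMP measured with PDE inhibitor Ro 20-1724 present during compound exposure; potency is read from the fitted curve at half-maximal effect; % is scaled to controls: 0 for no effect and ±100 for the full control effect; nearly all actives have a fitted effect of over 65% in size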
#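 HTRF cAMP read-out (cAMP-d2 plus anti-cAMP antibody-K in lysis buffer, 30 min RT). Before lysis, cells are exposed to compounds with […] for 30 min at 37C in DPBS containing Ca/Mg, BSA and Tween 20.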
# gsp ag = agonists of gsp mutant (McCune-Albright syndrome); gsp mutant cells, cAMP HTRF, 30 min; control for the full effect not named in the record; Potency, µM (titrated, usually from 76.9 µM), for the others: at the top dose activation (cAMP increase), hits mostly activators; AID 624287; 0.13% of 340,000 active; active = well fitted activation curve with a large enough effect; inconclusive = small, poorly fitted or top-dose-only effect, or another doubt; inactive = no such curve, though single readings can be large or run the other way; cell line not stated here;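 also: phosphodiesterase inhibitor Ro 20-1724 added with compounds to block cAMP breakdown; potency is read from the fitted curve at half-maximal effect; nearly all actives have a fitted effect of over 60% in size; about a fifth of the inactives were tested at one dose only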
#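 Cells in DMEM/10% FBS with G418 were pretreated with compounds in DMSO plus […] (300 uM stock) for 30 min at 37C. cAMP was measured by HTRF (cAMP-d2 plus anti-cAMP antibody-K) after 30 min at room temperature.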
# CtBP-E1A blk = inhibitors of CtBP/E1A interaction; AID 651724; activity change, % (no concentration beside the values); 0.49% of 340,000 active; AlphaScreen GST-E1A/His-CtBP binding, 1536-well; active compounds read low; control for the full effect not named in the record; in the data active means activity change below about -65%; inconclusive means about -30% to -65%; inactive means above about -30%; also: % is scaled to controls: 0 for no effect and ±100 for the full control effect
#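 Homogeneous bead-based format: GST-tagged E1A captured on glutathione donor beads, His-tagged CtBP on nickel acceptor beads; compounds precede bead addition by 2 h at 37 °C.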
# * hit, by the source's call; ? = inconclusive; . = no result given; [ ] = another dose, or the depositor's remark. Compounds were not picked by outcome (roughly 1.4% active in at least one column).
SMILES,D2 ag,D2 PAM,Six1-Eya2 inh,gsp antag,gsp ag,CtBP-E1A blk
CNS(=O)(=O)c1cccc(C(=O)OCC(=O)NC2CCCC(C)C2C)c1 (configuration not stated),-0.1,-1,6,1%,?,3
CC(C)(C)C(=O)N1CCN(c2ccc([N+](=O)[O-])c(NCC3CCCO3)c2)CC1 (configuration not stated),-1.2,0,-15,-25%,-42%[inhibitor],-15
CCOC(=O)C1=C(O)/C(=C/c2cc(OC)c(OC)c(OC)c2)N=C1C,-1.4,-19,-5,-16%,5%,2
COc1ccc(-c2cc(-c3cc(OC)ccc3O)[nH]n2)cc1,-2.3,-3,?,-20%,-46%[inhibitor],-22
CCN(CC(=O)Nc1c(F)cccc1F)C(=O)Cc1csc(-c2ccccc2)n1,-4.9,-7,-9,2%,18%[15.4 µM],-1
COc1ccc(-c2ccc(C)cc2)cc1[C@H]1[C@@H]2C=CCC[C@@]2(C)C(=O)N1Cc1ccccc1,-1.9,-10,-14,-20%,.,-10
COc1ccc2c(c1)OC[C@H]1[C@H]2N2C(=O)c3cc(Cl)ccc3NC(=O)[C@@]2(C)[C@H]1c1ccccc1,-4.3,-50,-12,-14%,.,0
COc1cccc(/C=N/Nc2nnc3c(n2)[nH]c2ccccc23)c1OC,0.9,9,3,-7%,16%,-12
Cc1cc(-c2ccc(C(C)C)c(S(=O)(=O)Nc3cc(C)on3)c2)on1,-1.9,-3,4,-27%,?,-9
Cc1cc(NC(=O)CCc2ccccc2)c([N+](=O)[O-])cc1C,-5.0,-28,-16,24%,?,-11
O=[N+]([O-])c1cc(S(=O)(=O)N2CCCC2)ccc1SCCO,-0.6,-2,2,4%,-6%,-25
COc1ccc(OC)c(Cc2nnc(CCC(=O)NCc3ccsc3)o2)c1,-1.6,-4,1,6%,0%,0
CC(C)CCN1CCN(Cc2cccn2-c2ccccn2)CC1CCO (configuration not stated),-0.6,-9,-1,20%,10%[15.4 µM],0
CN1CCN(NC(=O)c2cc([N+](=O)[O-])cc([N+](=O)[O-])c2)CC1,5.3,11,-1,13%,-29%,3
O=C(NCc1ccccc1)c1cc(C2COCCN2C(=O)c2ccc3c(c2)CCO3)on1 (configuration not stated),5.6,-3,13,.,.,-10
CC(=O)N1CCOc2cc(S(=O)(=O)NCc3ccc(F)cc3)c(C)cc21,-1.8,-2,-5,-3%,18%,2
CC(C)c1cc(CNC(=O)c2ccc(OC3CCN(Cc4ccccn4)CC3)cc2)on1,-2.6,-10,-9,9%,11%,-3
CCOc1ccc(CN(C)C(=O)c2ccc3ccccc3n2)cc1,-2.9,-3,8,-2%,-13%[15.4 µM],5
O=C1CC(=O)CC(c2ccccc2)C1,-3.7,-2,-6,-4%,-61%[inhibitor],.
Cc1cccn2c(=O)nc(SCC(=O)Nc3ccc4c(c3)OCO4)nc12,-4.6,-24,2,9%,-4%[15.4 µM],3
Cc1cc(NC(=O)COC(=O)c2ccc([N+](=O)[O-])cc2Cl)no1,?,7,-1,6%,-2%,-8
O=C(CSCc1ccccc1)Nc1ccc(S(=O)(=O)N2CCOCC2)cc1,-2.6,-6,2,1%,19%,4
Cc1cc(C)c(S(=O)(=O)N2CCN(S(=O)(=O)N3CCCCCC3)CC2)c(C)c1,-4.9,-6,-22,-31%,-4%[15.4 µM],0
N#CC(=C1CCCC1)c1nc(-c2ccccc2)cs1,-3.1,-14,39,-12%,5%,24
CCOC(=O)c1c(O)c2ccccc2n(-c2ccccc2)c1=O,-5.6,-7,-5,5%[15.4 µM],-29%,0
O=C(c1ccc2c(c1)C(=O)N(CCCO)C2=O)c1ccc2c(c1)C(=O)N(CCCO)C2=O,-2.9,12,-3,-2%,-61%[inhibitor],1
Cn1c(SCC(=O)Nc2ccc(N3CCOCC3)c(Cl)c2)nnc1C(O)c1ccccc1 (configuration not stated),2.2,3,-1,7%,8%,-1
CC(Oc1ccc(-c2nccc(-c3ccccn3)n2)cc1)C(=O)NN (configuration not stated),-0.6,0,6,7%,-8%,2
O=C(CSc1nnc(CCCN2C(=O)c3cccc4cccc(c34)C2=O)n1-c1ccccc1)N1CCCCC1,-0.5,8,-17,-6%,-3%,-1
COc1ccccc1NC(=O)C1=C(C)Nc2nc(-c3cccs3)nn2C1c1cccc(O)c1 (configuration not stated),-1.2,17,-10,-12%,2%,-13
COCc1cc(C)n(CC(=O)Nc2ccc(N3CCOCC3)cc2)c(=O)c1C#N,-6.2,-25,-5,-9%,-34%[inhibitor],0
CCOC(=O)C1=C(C)NC(=S)NC1c1ccco1 (configuration not stated),-0.4,-6,1,-10%,?,-12
CSc1cccc(CN2CCC(n3nccc3NC(=O)C3CC3)CC2)c1,0.7,-25,7,3%,-9%,4
CCCCCn1c(N2CCN(c3cccc(Cl)c3)CC2)nc2c1c(=O)[nH]c(=O)n2C,-4.5,-21,-4,-7%,-23%,-3
CCS/C(N)=N/N=C/c1cc(C)ccc1O,-6.3,-3,6,-3%,-23%,13
CCN(c1cccc(C)c1)S(=O)(=O)c1cccc(C(=O)O)c1,-1.9,3,3,-3%,4%,0
CCCc1cc(=O)[nH]c(SCC(=O)c2c(N)n(C3CC3)c(=O)[nH]c2=O)n1,-7.2,-3,8,12%,-24%,-4
CC1Cc2cc(S(=O)(=O)N3CCN(c4cccc(Cl)c4)CC3)ccc2N1C(=O)C1CC1 (configuration not stated),4.8,-9,7,5%,-47%[inhibitor],-9
CSc1nnc2c(n1)OC(C)=Nc1ccccc1-2,-0.9,-12,-66*,14%,34%,-22
CCOC(=O)c1c(S(=O)(=O)NCCc2ccccc2)c(C)n(C)c1C,-1.2,-11,-5,-6%,?,.
CCCCCCCCOc1ccc(C2OC34CCCCC3C(C#N)(C#N)C2(C#N)C(=N)O4)cc1 (configuration not stated),3.6,23,0,1%,-1%,9
CC(C)(C)n1nnnc1CN(Cc1ccco1)Cc1cc2cc3c(cc2[nH]c1=O)OCO3,0.7,-7,-15,4%,-40%,0
Nc1ccc2oc(-c3cccc(Br)c3)nc2c1,-2.8,-8,7,7%,?,14
COc1ccc(C)cc1NC(=O)c1cc2c(=O)n3ccccc3nc2n1C,0.1,2,2,-27%,17%[15.4 µM],14
CC(=O)NC(C)C(c1cccs1)N1CCN(c2ccccc2)CC1 (configuration not stated),-0.1,-9,0,8%,-59%[inhibitor],2
O=C(CNC(=O)c1ccccc1)c1ccccc1,-0.3,-16,-8,3%,24%,3
Cc1ccc(S(=O)(=O)N2CCCCC2)cc1NS(=O)(=O)c1ccc(Cl)c(C(=O)O)c1,-2.4,-7,7,7%,27%,7
Cc1ccc(CNC(=S)NC2CCCCC2)cc1,-3.6,-13,-19,12%,11%,-3
COc1ccc(CCCc2nnc(SCC(=O)Nc3nccs3)n2C)cc1C,-2.2,13,-11,-19%,-30%[inhibitor],-8
CC(=O)O[C@H]1C(=O)[C@]2(C)[C@H]([C@H](OC(=O)c3ccccc3)[C@]3(O)C[C@H](OC(=O)[C@H](O)[C@@H](NC(=O)c4ccccc4)c4ccccc4)C(C)=C1C3(C)C)[C@]1(OC(C)=O)CO[C@@H]1C[C@@H]2O,9.0,-6,1,-14%,.,-1
O=C(OCc1cc(=O)n2ccsc2n1)c1ccc(OC(F)F)cc1,-3.7,-3,2,16%,3%[15.4 µM],-1
COc1cc(-c2nnc(SCc3cc(=O)oc4cc(O)c(O)cc34)o2)cc(OC)c1OC,-1.0,-9,?,-11%,2%,?
NS(=O)(=O)c1ccc(CNC(=O)c2cc(=O)[nH]c3ccccc23)cc1,-3.5,1,1,13%,4%[15.4 µM],-6
COc1cc2c(cc1OC)-c1cc(NCc3ccccn3)nc(=O)n1CC2,-2.8,-20,-78*,8%,-36%[inhibitor],?
COCCOC(=O)C1=C(C)NC(=O)NC1C1CC=CCC1 (configuration not stated),-2.0,2,7,-8%,-19%,13
COc1cc(O)oc1C=Nc1ccc(Cl)cc1Cl,-2.5,-5,10,-5%,10%,-4
CCc1ccc(CNC(=O)c2cc3c(C)nc4ccccc4c3o2)cc1,-2.1,-4,?,-25%,-26%,?
NC(=O)c1cc(S(=O)(=O)NCc2ccccc2)cs1,0.7,-7,1,2%,17%,.
Cc1nn(C(C)CC(=O)O)c(C)c1C (configuration not stated),-0.2,-2,6,-1%,10%,5
COc1ccc(N2C(=O)CCC2(C#N)c2ccc(OC)cc2)cc1 (configuration not stated),-3.6,-12,-3,-8%,?,4

# One compound at a time, as listed above:
# `COc1cc(O)oc1C=Nc1ccc(Cl)cc1Cl` in the list: D2 ag: -2.5; D2 PAM: -5; Six1-Eya2 inh: 10; gsp antag: -5%; gsp ag: 10%; CtBP-E1A blk: -4
# `COc1cc2c(cc1OC)-c1cc(NCc3ccccn3)nc(=O)n1CC2` in the list: D2 ag: -2.8; D2 PAM: -20; Six1-Eya2 inh: -78*; gsp antag: 8%; gsp ag: -36%[inhibitor]; CtBP-E1A blk: ?

# With a hit mark in Six1-Eya2 inh (from the list above):
SMILES,D2 ag,D2 PAM,Six1-Eya2 inh,gsp antag,gsp ag,CtBP-E1A blk
CSc1nnc2c(n1)OC(C)=Nc1ccccc1-2,-0.9,-12,-66*,14%,34%,-22
COc1cc2c(cc1OC)-c1cc(NCc3ccccn3)nc(=O)n1CC2,-2.8,-20,-78*,8%,-36%[inhibitor],?

# Other records:
SMILES,D2 ag,D2 PAM,Six1-Eya2 inh,gsp antag,gsp ag,CtBP-E1A blk
CCOC(=O)C(=Cc1ccc2c(c1)OCO2)c1ccccc1,-4.3,-1,2,-22%,3%,5
CN(C(=O)c1coc(=O)c2ccccc12)c1ccccc1Cl,-0.4,-2,5,2%,22%,-2
Cc1ccc(C(C)NC(=O)/C(C#N)=C\c2c(C)[nH]c3ccccc23)cc1 (configuration not stated),-2.3,-12,-23,-14%,9%,-25
CCOC(=O)Nc1ccc2c(c1)N(C(=O)CCN(C)C)c1ccccc1S2,0.3,1,-2,19%,?,-2
Cc1sc2nc(SCc3nnc(-c4cccs4)o3)n(C3CCCC3)c(=O)c2c1C,0.0,4,0,-9%,26%,-2
CS(=O)(=O)N1CCN(c2ccc([N+](=O)[O-])c(NCc3ccc(Cl)cc3)c2)CC1,-2.9,-10,2,2%,-9%,-8
O=C(/C=N/O)Nc1cccnc1,0.9,-1,-4,3%,5%,4
Cc1nc(/C=C/c2ccccc2)cc(/C=C/c2ccccc2)n1,0.5,-2,11,-5%,3%,-9
CCC(C(=O)Nc1ccc(C(=O)O)cc1NC(=O)C(CC)c1ccccc1)c1ccccc1 (configuration not stated),-5.3,-22,12,-10%,-26%,.
C=CCN(c1ccccc1)S(=O)(=O)c1cc2c(cc1C)N(C)CCO2,-4.4,-2,-28,-1%,-40%[inhibitor],-21
Cc1ccc(NC(=S)Nc2ccc3cn[nH]c3c2)cc1,7.5,-22,-5,-1%,5%[15.4 µM],10
CCOC(=O)c1oc2nc3c(cc2c1N)COC(C)(C)C3,-5.9,-14,-2,-2%,-7%,0
Cc1c(NC(=S)NC(=O)Cc2ccccc2)cccc1C(=O)O,-0.9,-2,0,2%,-18%,7
